VDR inhibitor = vitamin D3 receptor (human) inhibition; P11473; VDR-SRC2-3 peptide fluorescence polarization, 2 h; Potency, µM, without a hit: max response, negative = inhibition, most hits filed as inhibitors; 0.93% of 400,000 active; AID 504847; active means well fitted inhibition curve with a large enough effect; inconclusive means small, poorly fitted or top-dose-only effect, or another doubt; inactive means no such curve, though single readings can be large or run the other way; further: series mostly up to about 120 µM
Target sequence (P11473 whole entry, looked up): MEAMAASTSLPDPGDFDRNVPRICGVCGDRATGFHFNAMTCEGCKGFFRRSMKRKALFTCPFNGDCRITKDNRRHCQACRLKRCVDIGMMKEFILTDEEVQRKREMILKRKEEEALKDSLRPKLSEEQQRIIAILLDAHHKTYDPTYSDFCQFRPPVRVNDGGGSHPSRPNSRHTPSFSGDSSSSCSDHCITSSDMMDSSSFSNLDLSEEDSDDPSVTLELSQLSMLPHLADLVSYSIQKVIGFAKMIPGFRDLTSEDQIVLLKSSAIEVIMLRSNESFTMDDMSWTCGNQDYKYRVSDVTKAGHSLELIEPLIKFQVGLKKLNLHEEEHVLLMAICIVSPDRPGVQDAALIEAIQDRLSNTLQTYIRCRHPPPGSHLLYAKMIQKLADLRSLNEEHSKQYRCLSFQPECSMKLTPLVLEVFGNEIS
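FP read-out; VDR + SRC2-3 coactivator peptide; 23 nl compound by pintool; 2 h RT incubation; reagents held at 4 deg C, protected from light.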
Starred values were filed as active, the others as inactive; ? = inconclusive; & = joins results of further samples; [ ] = dose if it differs, or a comment. On the % scale 0 is the no-effect control and ±100 the full control effect; potency means the concentration at half of the fitted maximal effect.

VDR inhibitor | Compound
-8.6% | CCN(CC)S(=O)(=O)c1cccc(NC(=O)CNc2cccc(S(=O)(=O)N3CCCC3)c2)c1
-5.4% | C=CCNC(=O)C1CCN(S(=O)(=O)c2ccc(Br)cc2)CC1
5.9% | O=C1CC2(CCN(S(=O)(=O)c3ccccc3F)CC2)Oc2ccccc21
-23.0% | Cc1ccc(C(=O)OCC(=O)Nc2ncc(Cl)cc2Cl)cc1NC(=O)c1ccco1
-11.5% | Cc1cc(C)c2nc(SCCC#N)nc(C)c2c1
-4.3% | CN(Cc1ccc(C(C)(C)C)cc1)Cc1cccc2ccccc12
-4.6% | COc1cccc2sc3cc(C#Cc4ccccn4)ccc3c(=O)c12
1.9% | Cn1cc(Cl)c(C(=O)NC2CCCCCC2)n1
-4.9% | CCC(C)NC(=O)c1ccc(C(=O)c2ccccc2)cc1 (stereo not given)
-6.4% | Cc1ccccc1C(=O)N1CCC(C(=O)N(CC(C)C)c2c(N)n(CC(C)C)c(=O)[nH]c2=O)CC1
-19.4% | COc1ccc(N2CCN(c3nc(Cl)nc(Nc4ccc(F)cc4)n3)CC2)cc1
-3.1% | CC(=O)N1CCc2ccc(S(=O)(=O)Nc3ccccc3Cl)cc21
1.9% | CCc1c(C)nc(SC/C=C/c2ccccc2)[nH]c1=O
1.7% | CCC(=O)N(C1=C(NC)C(=O)c2ccccc2C1=O)C(C)C
-16.1% | NC(=O)/C(=N\OC(=O)c1ccco1)c1nc(-c2ccc(Br)cc2)cs1
0.0% | COc1ccc(C(=O)C2=NN(C(C)=O)CC2c2ccco2)cc1 (stereo not given)
4.0% | COc1ccc(Oc2ncc3nc(-c4cn(C)c5ccccc45)c(=O)n(C)c3n2)cc1
-1.8% | CC1CCc2c(C(=O)Nc3ccc(OC(F)(F)F)cc3)csc2C1 (stereo not given)
-17.3% | COc1cc(OC)cc(-c2c(-c3cccs3)c3cc(-c4ccc(OC)nc4)ccc3n2C)c1
-8.3% | Cc1ccc(NC(=O)c2ccccc2OCc2ccc([N+](=O)[O-])cc2)nc1
3.7%&7.8% | Cc1[nH]c2ccc(C(=O)NCCCN3CCCCC3)cc2c1C
12.7% | c1ccc2oc(C3=NCCN3)cc2c1
-0.2% | COc1cc2c(cc1OC)C(COc1ccccc1OC)N(C(=O)c1ccccc1OC)CC2 (stereo not given)
33.3%[activator] | CCn1c(SCC(=O)OC)nnc1-c1ccncc1
-5.8% | O=C(COC(=O)CCN1C(=O)C2CC=CCC2C1=O)Nc1ccc([N+](=O)[O-])cc1 (stereo not given)
-3.3% | CC(=O)Nc1ccc(NC(=O)c2c(-c3ccccc3Cl)noc2C)cc1
-0.7% | COC(=O)c1ccccc1NC(=O)NC1CCCC1
-11.4% | COc1ccc(S(=O)(=O)N(C)C)cc1NC(=O)CCNC(=O)c1ccccc1OC
-11.8% | COc1ccc(CC(=O)Nc2cccc(-c3nnc(-c4ccco4)o3)c2)cc1
-11.0% | O=[N+]([O-])c1cccc(C=Nc2cc3c(cc2Br)OCCO3)c1
? | NC(=S)c1cc2ccc(O)cc2oc1=O
19.6% | CC(C)Cc1nn2c(=O)cc(COC(=O)c3cccc(NC(=O)c4cccs4)c3)nc2s1
-8.4% | CCN(c1cc(C)cc(C)c1)S(=O)(=O)c1nnc(NC(=O)C(C)(C)C)s1
7.4% | COc1ccccc1Nc1nc(-c2ccc([N+](=O)[O-])cc2)nc2ccccc12
-6.9% | Cc1nn(-c2ccccc2)c2c1C(=O)NC(=O)C(C)(C)C2
-7.1% | CO[C@@H]1[C@@H](OC(N)=O)[C@@H](O)C(Oc2ccc3c(O)c(NC(=O)c4ccc(O)c(CC=C(C)C)c4)c(=O)oc3c2C)OC1(C)C (stereo not given in full)
1.7% | OC1CCN(c2c3c(nc4cc(-c5cccc(F)c5)nn24)CCCC3)CC1
-12.6% | CCn1c(=O)cc(SCC(=O)Nc2cccnc2)c2ccccc21
-5.4% | Cc1cccc(-n2ncc3c2CCCC3NC(=O)Cc2c(C)noc2C)c1C (stereo not given)
-1.7% | CC(=O)c1cc(C#N)c(SCC(=O)OC(C)(C)C)nc1C
-23.3% | O=C(COc1ccc(/C=N/NC(=O)c2ccccc2O)cc1)Nc1ccc([N+](=O)[O-])cc1
7.4% | CCN(CC(=O)Nc1c(F)cccc1F)C(=O)/C=C/c1ccc(S(=O)(=O)N2CCCCCC2)cc1
11.8% | Cc1ccc(-n2nc3cc(C)c(NC(=O)c4cccnc4)cc3n2)cc1
-22.2% | CC(C)(C)OC(=O)COc1cc(F)ccc1[N+](=O)[O-]
22.9% | COc1ccc(Nc2nc(-c3ccccc3)c3ccccc3n2)cc1
7.9% | Cc1cc(NC(=O)CSc2nnnn2-c2ccc(C)c(C)c2)no1
5.5% | O=C(CCCCCNC(=O)N1CCn2c1nc1ccccc12)N[C@@H](C(=O)O)c1ccccc1
-6.9% | CCOC(=O)c1nn(-c2ccc(F)cc2)c(=O)cc1OCC(=O)Nc1ccc(OCC)cc1
10.6% | Cc1oc2ncnc(N3CCCCC3)c2c1C(=O)NCC1CCN(Cc2ccccc2F)CC1
-0.1% | Cc1ccc(-c2noc(Cn3cc(S(=O)(=O)N4CCCC4)ccc3=O)n2)cc1
6.8% | O=C(COC(=O)c1nsc(Cl)c1Cl)NC1CCCC1
15.1% | O=C(c1cccc(OC(F)F)c1)N1CCN(c2ncccn2)CC1
-17.1% | Cc1nn(-c2ccccc2)c(OC(=O)c2ccc(Br)cc2)c1S(=O)(=O)c1ccccc1
-14.8% | CCOC(=O)C(C)(C)N(Cc1ccccc1C)S(=O)(=O)c1ccc(Cl)c([N+](=O)[O-])c1
-11.2% | CCN(CC(=O)NCc1cccs1)C(=O)c1ccc(NS(=O)(=O)c2cccc([N+](=O)[O-])c2)cc1
-1.5% | CCOC(=O)c1c(S(=O)(=O)N2CCCC2)c(C)n(C)c1C
12.7% | COc1cccc(-c2nnc3sc(CN4CCCCC4)cn23)c1
-5.0% | CC(C)(C)c1ccc(C(CC(=O)O)NC(=O)CSc2ccccc2)cc1 (stereo not given)
5.6% | COc1ccc(N2CCN(C(=O)Cn3cnc4c(cnn4-c4ccc(C)cc4)c3=O)CC2)cc1
-10.4% | CC(C)Cn1c(=O)c2ccccc2n2c(CCC(=O)N3CCN(c4ccccc4F)CC3)nnc12

Next records.
VDR inhibitor | Compound
-9.0% | CN(C)CC#Cc1cncc(C(=O)NNC(=O)Nc2ccc(Cl)cc2)c1
-10.9% | COc1cc(O)c(CCO)c2c1C(=O)C[C@@H](C)O2
-12.9% | C/C(=N\Nc1nc(N2CCCCC2)nc(N2CCOCC2)n1)c1cccs1
-4.3% | CC(C)C(C(=O)Nc1cccnc1)N1C(=O)c2ccccc2C1=O (stereo not given)
-16.2% | C=CCSc1nnc(Cc2c(C)[nH]c3ccccc23)o1
-7.8% | CCOc1ccc(S(=O)(=O)N(CC(=O)NCCc2ccc(OC)c(OC)c2)c2ccccc2)cc1
3.3% | Cc1ccccc1NC(=O)CSc1nnc(NC(=O)C2CC2)s1
22.5% | COc1cc(C)nc(NS(=O)(=O)c2ccccc2)n1
-11.9% | COCCCNC(=O)C1CCCN(C(=O)Nc2ccc(OC)cc2)C1 (stereo not given)
-11.1% | CCCCn1c(=O)[nH]c(=O)c2c1nc(-c1ccc(OCC)cc1)n2CC
-18.3% | CCc1cccc2c(C(=O)C(F)(F)F)cn(CC(=O)NCC3CCCO3)c12 (stereo not given)
-2.0% | COc1ccccc1NC(=O)c1ccc(NC(=O)c2ccc(=O)[nH]c2)cc1

Three of the entries above in order of the VDR inhibitor value, falling:
VDR inhibitor | Compound
22.5% | COc1cc(C)nc(NS(=O)(=O)c2ccccc2)n1
-4.3% | CC(C)C(C(=O)Nc1cccnc1)N1C(=O)c2ccccc2C1=O (stereo not given)
-10.9% | COc1cc(O)c(CCO)c2c1C(=O)C[C@@H](C)O2

New compounds follow
VDR inhibitor | Compound
4.4% | CCN(CC)S(=O)(=O)c1csc(C(=O)NC2CCCCC2)c1
14.4% | CC(C)(Nc1ccccc1)C(=O)c1ccccc1
-9.4% | C=CCNC(=S)NNC(=O)c1ccc(OCC)cc1
6.2% | Cc1ccc(C(=O)c2oc3ccccc3c2NC(=O)COc2ccc(Cl)c(C)c2)cc1
-0.8% | Cc1cccc(N2C(=O)CSC23C(=O)N(CC(=O)NCCc2ccccc2)c2ccccc23)c1 (stereo not given)
9.1% | CCCCc1nn2c(=O)cc(COC(=O)COc3ccc(C)cc3)nc2s1
-10.9% | CN1c2ccsc2C(=O)/C(=C\Nc2cccc(C(F)(F)F)c2)S1(=O)=O
-19.2% | CCOC(=O)c1cnc(-n2nc(C)cc2C)nc1Nc1ccc(N(C)C)cc1
-9.7% | Cc1ccc(S(=O)(=O)N[C@@H](CO)C(=O)N[C@@H](Cc2ccc(O)cc2)C(=O)O)cc1
-11.8% | CCOC(=O)N1CCc2c(sc3c2c(=O)n(Cc2ccccc2)c(=O)n3CC(=O)Nc2ccc(C)cc2C)C1
-11.1% | Cc1cccc(NC(=O)CN(C)S(=O)(=O)c2ccc(Cl)cc2)n1
-1.4% | CCOc1ccc(S(=O)(=O)n2ccnc2)c2ccccc12
-4.3% | COc1ccc(S(=O)(=O)Nc2ccc(F)cc2F)cc1C(=O)N1CCOCC1
-16.5% | O=S(=O)(c1ccc2nnn(OCc3ccccc3)c2c1)N1CCOCC1
-1.2% | CCCOc1ccc(C2C(C#N)=C(N)Oc3nc[nH]c(=O)c32)cc1OC (stereo not given)
6.2% | Cc1ccnc2c(N3C(=O)C4C5c6ccccc6C(c6ccccc65)C4C3=O)cccc12 (stereo not given)
15.8% | CCOC(=O)c1ccc(NC(=O)NC2CCN(CC(=O)NCc3ccc4c(c3)OCO4)CC2)cc1
8.5% | Cc1ccc(NC(=O)CSc2nc3ccccc3n2CC(=O)N(C)C2CCCCC2)cc1C
-2.4% | CCOC(=O)c1c(NC(=O)CSc2nc3ccc(OC)cc3[nH]2)sc2c1CC(C)(C)NC2(C)C
-2.7% | Fc1ccc(-c2ccc3c(c2)C2CC3CCN2Cc2ccc3c(c2)OCO3)cc1 (stereo not given)
12.2% | Cc1ccc(C)c(S(=O)(=O)c2nnn3c2nc(Nc2ccc(C)c(C)c2)c2sccc23)c1
2.2% | CN(C)c1cccc(C(=O)NC2CCCc3ccccc32)c1 (stereo not given)
? | CC1(C)C=C2C(=NN(c3ccccc3)C(N)=C2C#N)CO1
-2.7% | Cc1cc(C)c(NC(=O)C(C)n2nnc3sc(-c4ccccc4)cc3c2=O)c(C)c1 (stereo not given)

A portion from further up:
VDR inhibitor | Compound
8.5% | Cc1ccc(NC(=O)CSc2nc3ccccc3n2CC(=O)N(C)C2CCCCC2)cc1C
-2.4% | CCOC(=O)c1c(NC(=O)CSc2nc3ccc(OC)cc3[nH]2)sc2c1CC(C)(C)NC2(C)C
-2.7% | Fc1ccc(-c2ccc3c(c2)C2CC3CCN2Cc2ccc3c(c2)OCO3)cc1 (stereo not given)
12.2% | Cc1ccc(C)c(S(=O)(=O)c2nnn3c2nc(Nc2ccc(C)c(C)c2)c2sccc23)c1
2.2% | CN(C)c1cccc(C(=O)NC2CCCc3ccccc32)c1 (stereo not given)
? | CC1(C)C=C2C(=NN(c3ccccc3)C(N)=C2C#N)CO1
-2.7% | Cc1cc(C)c(NC(=O)C(C)n2nnc3sc(-c4ccccc4)cc3c2=O)c(C)c1 (stereo not given)

Next records follow.
VDR inhibitor | Compound
23.2% | CC(C)NC(=O)c1ccccc1NC(=O)c1nsc2ccccc12
4.1% | NC(=O)C1CCN(c2ccnc3cc(Cl)ccc23)CC1
2.7% | O=C(c1cc2ccccc2oc1=O)N(c1ccccc1)C1C=CS(=O)(=O)C1 (stereo not given)
-12.1% | CCCCCCCC(O)CC(CC1CCCCC1)C(=O)NN (stereo not given)
20.8% | COc1ccc(CCN=C(N)NS(=O)(=O)c2ccc(C)c(C)c2)cc1
-8.1% | C(=N\Nc1nc2ccccc2s1)/c1ccc2c(c1)OCO2
-10.5% | CCNS(=O)(=O)c1ccc(NC(=O)c2cncc(Br)c2)cc1
4.5% | CC1S/C(=N/N=C/c2cccc([N+](=O)[O-])c2)NC1=O (stereo not given)
-13.4% | NC(=O)c1ccc(NC(=O)c2cccc(Oc3ccccc3)c2)cc1
-1.1% | Brc1ccc(Br)c2cnccc12
-6.2% | CC(C)c1ccc(NC(=S)N2CCN(Cc3ccccc3)CC2)cc1
-13.1% | CN(C)c1ccc(NC(N)=S)cc1
-6.9% | COc1ccc(C(C(=O)NC(C)(C)C)N(Cc2ccc(C)cc2)C(=O)CCC(=O)Nc2cc(C)on2)cc1 (stereo not given)
-14.8% | Cc1ccc(-c2c(C)nn3c(N4CCOCC4)cc(C)nc23)cc1
0.5% | O=S(=O)(c1cccc(Br)c1)N1CCN(c2ccnc3cc(Cl)ccc23)CC1
-3.8% | c1ccc(CN2CCC(N3CCC(N4CCCCCC4)CC3)CC2)cc1
2.4% | CCOc1ccc(N2CCc3c(C)nc(SC)nc32)cc1
-3.3% | Cc1cccc(C2(c3cccc(C)c3)OC(=O)c3ccccc32)c1
0.7% | O=C(O)CC(NC(=S)NCc1ccccc1)C(=O)O (stereo not given)
-8.3% | O=C(CCCN1C(=O)c2cccc3cccc(c23)C1=O)Nc1nccs1
-19.5% | CCC(Oc1ccccc1)C(=O)NCc1cccnc1 (stereo not given)
5.3% | Cn1c(N)c(C(=O)COC(=O)CC(NC(=O)c2ccccc2Cl)c2ccccc2)c(=O)n(C)c1=O (stereo not given)
-0.2% | CC(=O)Nc1nc(CC(C)C)cc(-c2ccccc2)c1C#N
8.3% | CCc1ccccc1-n1c(C)nc2cc(C(=O)NCCc3ccc(Cl)cc3)ccc21
9.3% | Cc1ccc(C)c(OC(=O)c2ccncc2)c1
9.5% | COc1ccc(NCc2cccn2-c2nnc(N3CCOCC3)s2)cc1OC
5.2% | O=C(NC1CC2CCCC(C1)N2Cc1ccc(F)cc1)c1ccc(F)cc1 (stereo not given)
-25.6% | Cc1cccc(C(=O)Nc2ccc3oc(-c4cccc5c(Br)cccc45)nc3c2)c1
0.6% | C=CCN1C=C2C(=O)C(C)(OC(=O)CC)C(=O)C=C2C=C1CCCC (stereo not given)
1.3% | O=C(NNC1OC(CO)C(O)C(O)C1O)c1cccc(Br)c1 (stereo not given)

Screening data from PubChem BioAssay.

Only part of the results is shown; count on the stated rates, not on these rows.
